nsP2pro inh = inhibitors of chikungunya virus nsP2 protease | Q8JUX6 | AID 1964107 | FRET peptide cleavage, nsP2pro, fluorescence 1 h | Potency, µM (doses to about 24.9 µM), for inactives: at the top dose activity change, negative = inhibition, actives largely listed as inhibitors | 31,000 tested, 1.1% active; active means well fitted inhibition curve with a large enough effect; inconclusive means small, poorly fitted or top-dose-only effect; inactive means no such curve, though single readings can be large or run the other way; further: nearly all actives have a fitted effect of over 60% in size; a reference inhibitor and vehicle were the controls
The depositor's hits bear a star; i = inactive; ? = inconclusive; & = joins results of further samples; ! = not active in a repeat; [ ] = another dose, or the depositor's remark. On the % scale 0 is the no-effect control and ±100 the full control effect; potency means the concentration at half of the fitted maximal effect. These rows are one share of the data. The share of hits here may be higher or lower than overall.

SMILES	nsP2pro inh
CCC(C)C(N)C1=NC(C(=O)N[C@@H](CC(C)C)C(=O)N[C@H](CCC(=O)O)C(=O)N[C@H](C(=O)N[C@H]2CCCCNC(=O)[C@H](CC(N)=O)NC(=O)[C@@H](CC(=O)O)NC(=O)[C@H](Cc3cnc[nH]3)NC(=O)[C@@H](Cc3ccccc3)NC(=O)[C@H]([C@@H](C)CC)NC(=O)[C@@H](CCCN)NC2=O)[C@@H](C)CC)CS1 (some centres not stated)	0.22µM*!
CCCCN(C)C(=O)Cn1nc(-c2ccc(F)cc2)ccc1=O	-8%
COc1cc(/C=C/CO)cc(OC)c1O[C@@H]1O[C@H](CO[C@@H]2O[C@H](CO)[C@@H](O)[C@H](O)[C@H]2O)[C@@H](O)[C@H](O)[C@H]1O	-6%[10 µM]
O=P(O)(O)C(O)(Cc1cccnc1)P(=O)(O)O	15%[2.68 µM]
Cc1cccc(CNc2ccnc(-c3ccc(F)cc3F)n2)c1	5%
NCC(=O)Nc1cncc(-c2nn3c(=O)cc(N4CCNCC4)nc3s2)c1	-16%
Cc1ccc(CCNC(=O)c2ccc3c(c2)N(Cc2ccc(F)cc2)CCS3)cc1	-14%
CCOc1ccc(N(C)C(=O)C2CCN(S(=O)(=O)c3ccc4c(c3)CCCN4C(C)=O)CC2)cc1	-13%
Cc1cc2c(s1)c1cnn(Cc3cc(C(F)(F)F)ccc3F)c(=O)c1n2C	-5%
O=C(NC1CCCC1)NC1CCN(c2nc3ncccc3o2)C1 (configuration not stated)	?
O=c1c2oc3ccccc3c2n(Cc2ccccc2F)c(=O)n1Cc1ccc2c(c1)OCO2	-22%
C=C[C@H]1[C@H](O[C@@H]2O[C@H](CO)[C@@H](O)[C@H](O)[C@H]2O)OC=C(C(=O)OC)[C@H]1C[C@@H]1N[C@H](C(=O)O)Cc2c1[nH]c1ccccc21	38%[activator][10 µM]
CCC1C2CC3C4N(C)c5ccccc5C45CC(C2C5O)N3C1O (configuration not stated)	-14%
O=C1CCCC2=C1C(c1[nH]ncc1Cl)NC(=NCc1ccco1)N2 (configuration not stated)	-2%
CCOc1ccccc1N(CC(=O)N1CCc2ccccc2C1)S(=O)(=O)c1ccccc1	-23%
O=C(c1cnc2n1CCN(CCc1ccccc1)CC2)N1CCC(c2ccccc2)CC1	i
CC(=O)c1ccc(N2CCN(C(=S)Nc3cc(C)ccn3)CC2)cc1	-2%
O=C(Cc1nnc(CNC(=O)c2ccccc2)o1)Nc1cc(C(F)(F)F)ccc1Cl	-7%
COc1ccc(-c2nc3c(c(-c4ccccc4)n2)CN(C(=O)c2ccc(F)cc2)CC3)cc1	i
Cc1nc(NCc2ccc(-c3ccnc(C(F)(F)F)c3)cc2)c2ccccc2n1	0%
CC(C)C[C@H](NC(=O)OCc1ccccc1)C(=O)N[C@@H](CC1CCNC1=O)C(O)S(=O)(=O)O (some centres not stated)	-24%
CCCC1O[C@@H]2C[C@H]3[C@@H]4CCC5=CC(=O)C=C[C@]5(C)[C@H]4[C@@H](O)C[C@]3(C)[C@]2(C(=O)CO)O1 (some centres not stated)	-5%
Cc1ccc(S(=O)(=O)NC(N)=NCCC[C@@H](NC(=O)CNC(=O)c2ccccc2)C(=O)Nc2cc(C(F)(F)F)ccc2Cl)cc1	-2%
COCCn1c(C)cnc1CCNC(=O)c1cc(C)nn1C	2%
C[C@@H]1O[C@@H](O[C@H]2[C@H](O)[C@@H](C(=O)O)O[C@@H](O[C@H]3CC[C@@]4(C)C(CC[C@]5(C)C4CC=C4C6CC(C)(C)CC[C@]6(C(=O)O)CC[C@]45C)C3(C)C)[C@@H]2O[C@@H]2O[C@H](CO)[C@@H](O)[C@H](O)[C@H]2O)[C@H](O)[C@H](O)[C@H]1O (some centres not stated)	?
COC(=O)C1=COC(OC2OC(CO)C(O)C(O)C2O)C2C(C)C(OC(C)=O)C(OC(=O)c3ccccc3)C12 (configuration not stated)	22%[10 µM]
Cc1ccccc1CN1CC2(COCC1=O)CN(c1ccc(C(F)(F)F)cn1)C2	-7%[39.2 µM]
COCCN1CCCC1c1nc(C2CN(C(=O)c3ccccc3OC)C2)no1 (configuration not stated)	i
CC(C)N1C[C@@H](C(=O)O)C[C@H](C(=O)Nc2ccc(F)cc2)C1	1%
OC[C@H]1NC[C@H](O)[C@@H](O)[C@H]1O	-1%
COc1ccc(C2=Nn3c(nnc3-c3ccccc3C)SC2)cc1	1%
O=C(Nc1ccc(F)cc1)N1C[C@@H]2C[C@H](C1)c1c(NS(=O)(=O)c3ccccc3)ccc(=O)n1C2	-12%
COc1cccc(C(=O)N(Cc2cccnc2)c2nc3c(OC)ccc(C)c3s2)c1OC	19%
Cc1ncc(CO)c(C=O)c1O	0%
CC1(C)N=C(SCc2ccc(F)cc2)c2ccccc2N1	-22%
Fc1cccc(-c2cc(-c3cn[nH]c3)c3cncn3c2)c1	i
Cc1cc(Br)ccc1NC(=O)C1(S(=O)(=O)c2ccc(Cl)cc2)CC1	-15%
Cc1cccc(-n2cnc3cc(C(=O)N4CCC(Cc5ccccc5)CC4)ccc32)c1	i
C[C@H]1O[C@@H](n2cc(F)c(=O)[nH]c2=O)[C@H](O)[C@@H]1O	16%
Cc1c(NC(=O)Cc2ccccc2)cccc1-c1nc2cccnc2s1	0%
COc1ccc(C(=O)N2CCC(C(=O)Nc3ccc(Cl)cc3)CC2)cc1	-16%
Cc1ccc(N2C(=O)[C@@H]3CSC(c4ccc(Cl)cc4)N3C2=O)cc1 (some centres not stated)	-7%
Cc1ccc(C[C@H](C(=O)O)N2C(=O)c3ccc(C(=O)O)cc3C2=O)c(C)c1	-20%
Cc1noc2c(NC3CCN(C)CC3)cc(-c3cccs3)nc12	-12%[39.2 µM]
CO[C@H]1C[C@H](O[C@H]2CC[C@]3(CO)[C@H]4CC[C@]5(C)[C@@H](C6=CC(=O)OC6)CC[C@]5(O)[C@@H]4CC[C@]3(O)C2)O[C@H](C)[C@H]1O	4%[10 µM]

Some values from the results shown:
For nsP2pro inh, COc1ccc(C(=O)N2CCC(C(=O)Nc3ccc(Cl)cc3)CC2)cc1 has the entry -16%
For nsP2pro inh, Cc1ccc(N2C(=O)[C@@H]3CSC(c4ccc(Cl)cc4)N3C2=O)cc1 (some centres not stated) has the entry -7%

Given as comma-separated lines: entries from further up
SMILES,nsP2pro inh
O=C(Nc1ccc(F)cc1)N1C[C@@H]2C[C@H](C1)c1c(NS(=O)(=O)c3ccccc3)ccc(=O)n1C2,-12%
COc1cccc(C(=O)N(Cc2cccnc2)c2nc3c(OC)ccc(C)c3s2)c1OC,19%
Cc1ncc(CO)c(C=O)c1O,0%
CC1(C)N=C(SCc2ccc(F)cc2)c2ccccc2N1,-22%
Fc1cccc(-c2cc(-c3cn[nH]c3)c3cncn3c2)c1,i
Cc1cc(Br)ccc1NC(=O)C1(S(=O)(=O)c2ccc(Cl)cc2)CC1,-15%
Cc1cccc(-n2cnc3cc(C(=O)N4CCC(Cc5ccccc5)CC4)ccc32)c1,i

New compounds follow
SMILES	nsP2pro inh
O=C(Nc1ccc2c(c1)OCCO2)N1CCCCC1c1nc(CCOCC2CC2)no1 (configuration not stated)	-1%
O=C(Nc1ccc(-c2nc3cc(NC(=O)c4ccccc4Cl)ccc3o2)cc1)c1ccccc1Cl	-29%
COCCN1C(=O)c2cccn2CC1CNS(=O)(=O)c1c(C)noc1C (configuration not stated)	-4%
COc1ccc(C2=Nn3c(nnc3-c3ccccc3Cl)SC2)cc1OC	-16%
O=C(COc1ccccc1Cl)N1CCN(CCc2ccccn2)CC1	-9%
CSc1cccc(NC(=O)CC(c2cccs2)N2Cc3ccccc3C2=O)c1 (configuration not stated)	-17%
Cc1ncc([N+](=O)[O-])n1CC(O)CN1CCOCC1 (configuration not stated)	-17%
O=C(NCCS(=O)(=O)N1CCN(c2ccc(F)cc2)CC1)c1ccccc1Br	-15%
C=C(C)Cn1c(SCC(=O)c2ccc(Br)cc2)nc2sc3c(c2c1=O)CCCC3	-18%
O=C1c2cccc(O)c2C(=O)c2c(O)cccc21	-24%&-25%
COc1cccc(C(=O)Nc2ccc3oc(-c4ccc5ccccc5c4)nc3c2)c1	-16%
CC(C)Oc1cccc(-c2cnc(N3CCC(C(N)=O)CC3)s2)c1	0%
O=S(=O)(Nc1cccc2ccccc12)c1ccc(NCc2ccc(Br)cc2O)cc1	?
CC1(C)OC(=O)C=C[C@@]2(C)C1CC(=O)[C@]1(C)C2CC[C@@]2(C)[C@H](c3ccoc3)OC(=O)[C@H]3O[C@]321 (some centres not stated)	3.4µM*
COc1cc(C)c(-c2nc(Cn3cccn3)c(C)o2)cc1C	i
COc1ccc(OC)c(NS(=O)(=O)c2ccc3[nH]c4c(c3c2)CCCCC4)c1	-7%
Cc1ccc(NS(=O)(=O)c2ccc3c(c2)C(C(C)C)C(=O)N3)cc1C (configuration not stated)	-17%
COc1cc(-c2cc(-c3cccc(O)c3)cnc2N)cc(OC)c1OC	15%
COc1cc(NS(=O)(=O)c2ccc3c(c2)OCC(C(=O)N2CCCC2)O3)cc(OC)c1 (configuration not stated)	-19%
CCn1c2ccccc2c2nnc(N3CCN(c4cccc(Cl)c4)CC3)nc21	-14%
COc1ccccc1-n1ncc2c(=O)[nH]c(SCC(=O)Nc3cccc(F)c3)nc21	-6%
c1ccc2[nH]c([C@H]3CCN(CC4CCCCC4)C3)nc2c1	i
COc1cc(OC)cc(C(=O)Nc2ccc3nc(N4CCCCC4)cc(C)c3c2)c1	1%
CC1CCCC(O)CCCCCc2cc(O)cc(O)c2C(=O)O1 (configuration not stated)	4%[39.2 µM]
CC(C)CCn1c(=O)c2cccnc2n(CC(=O)Nc2ccccc2F)c1=O	-12%
CC[C@@H](C)[C@H](NC(=O)C(C)(C)NC(=O)[C@H](CCC(N)=O)NC(=O)C(C)(CC)NC(=O)[C@H](Cc1c[nH]c2ccccc12)NC(C)=O)C(=O)N[C@H](C(=O)NC(C)(C)C(=O)N[C@@H](CC(C)C)C(=O)NC(C)(C)C(=O)N1CCC[C@H]1C(=O)N[C@@H](CCC(N)=O)C(=O)NC(C)(C)C(=O)N1CC(O)C[C@H]1C(=O)NC(C)(CC)C(=O)C1CC[C@@H](C(=O)N[C@@H](Cc2ccccc2)C(=O)NCC(=O)O)N1)C(C)O (some centres not stated)	14%[2.68 µM]
COc1cc(Cc2cnc(N)nc2N)cc(OC)c1OC	?
CC(=O)OC1C(C)C2C(OC3OC(CO)C(O)C(O)C3O)OC=C(C(=O)O)C2C1OC(=O)c1ccccc1 (configuration not stated)	2%[10 µM]
C[C@@H]1C[C@H]2[C@@H]3CCC4=CC(=O)C=C[C@]4(C)[C@@]3(F)[C@@H](O)C[C@]2(C)[C@H]1C(=O)CO	-3%
CC(C(N)=O)N1CCn2nc(CCC(=O)N3CCOCC3)cc2C1 (configuration not stated)	i
CCN(CCCc1ccccc1)CCCc1ccccc1	6%
CC(C)N(C(=O)CSc1cn(CC(=O)N2CCCCCC2)c2ccccc12)C(C)C	-25%
O=C(O[C@H]1[C@@H]2C[C@@H]3OC[C@](O)([C@@H]1Cl)[C@H]2C(O[C@@H]1O[C@H](CO)[C@@H](O)[C@H](O)[C@H]1O)O3)c1ccc(O)c(O)c1 (some centres not stated)	13%[10 µM]
C[C@H]1[C@H](C)CC[C@]2(C(=O)O)CC[C@]3(C(=O)O)C(=CCC4[C@@]5(C)CC[C@H](O[C@@H]6O[C@H](C)[C@@H](O)[C@H](O)[C@H]6O)C(C)(C)C5CC[C@]43C)[C@H]12 (some centres not stated)	?
O=c1c2ccccc2nc2sc(NS(=O)(=O)c3ccc4c(c3)CCC4)nn12	i
CC1COC2=C1C(=O)C(=O)c1c2ccc2c1CCCC2(C)C (configuration not stated)	11µM*
COc1ccc(CCNC(=O)c2nc(SCc3ccccc3F)ncc2Cl)cc1OC	-23%
[2H]C([2H])([2H])C(O)(CCO[C@@H](C)[C@H]1CC[C@H]2/C(=C/C=C3\C[C@@H](O)C[C@H](O)C3=C)CCC[C@]12C)C([2H])([2H])[2H]	-9%
OCC1=C[C@@H](O)[C@@H]2C=CO[C@@H](O[C@@H]3O[C@H](CO)[C@@H](O)[C@H](O)[C@H]3O)[C@H]12	4%
CC(C)(C)OC(=O)NCCCC(=O)NCc1ccnc2[nH]ccc12	-4%
CCOC(=O)c1cccc(NC(=O)C2(S(=O)(=O)c3ccc(C)cc3)CC2)c1	-18%
CCc1ccc(N2C(=O)CS(=O)(=O)C23C(=O)N(Cc2ccccc2)c2ccccc23)cc1 (configuration not stated)	-25%
CC1(C)CCCC2(C)C=C(C(=O)O)C(O)CC12 (configuration not stated)	-3%
Cc1ccc(-c2c(C(=O)CF)n(CCCO)c3ncnc(N)c23)cc1	-4%
Cc1ccc2nc(NC3=NC(c4[nH]ncc4Cl)C4=C(CCCC4=O)N3)oc2c1 (configuration not stated)	i
CC(C)c1cnc2c(c1SCC(=O)NCc1ccccc1Cl)c(=O)n(C)c(=O)n2C	-21%
CCOc1ccc(CCNC(=O)c2cc3cc4cc(OC)ccc4nc3s2)cc1OCC	-13%
N#Cc1ccc(C2CCCc3cncn32)cc1 (configuration not stated)	29%[10 µM]
